Assay outcomes (PubChem)
PABP polyA inh: PABP-poly(A) binding inhibition; P11940; PABP-poly(A) RNA binding, fluorescence polarization; inhibition, % at 35 µM; 290,000 compounds, 1% hits; AID 2014;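 active means 50% or more with normal probe brightness, or confirmed in later tests; about a fifth of its hits are not listed in these tables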;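 further: calls also rest on retests at 20 µM and on dose response follow-up; controls were probe without protein and protein plus probe with vehicle; some compounds called inactive have numbers as strong as hits; many hits fall short of the cut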
UUG fidelity: yeast start codon fidelity modulation. S. cerevisiae UUG-firefly luciferase reporter, luminescence/redox ratio. activity score, % at 18.7 µM. 350,000 compounds, 0.13% hits;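 active means replicate mean at a twofold rise or more, about +100% in these data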;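 further: firefly luciferase made from a UUG start codon reports start codon fidelity; reporter light over untreated wells divided by growth signal over untreated wells; some hits fall short of that in this replicate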
CSC inhib: blocks cancer stem cells | cancer stem cell-like cells viability, luminescence | inhibition, % at 7.5 µM | 300,000 compounds, 1.1% hits | AID 2717;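 active means mean at 75% or more and at least half the replicates too; tested in HMLE shEcad cells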;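 further: 0% = median of negative and 100% = median of positive control wells; the first replicate is given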
Rce1 inh: blocks yeast Ras-converting enzyme; Q03530; yeast membranes, quenched prenylated peptide cleavage fluorescence; calls only; 290,000 compounds, 0.27% hits; AID 2563;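 active means fall in fluorescence gain of 50% or more versus controls, with final raw signal at or below 3038400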;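 further: plate controls were neutral control wells for no effect and wells lacking membranes for full effect; tested at 10 µM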
Target sequence (Q03530 whole entry, looked up): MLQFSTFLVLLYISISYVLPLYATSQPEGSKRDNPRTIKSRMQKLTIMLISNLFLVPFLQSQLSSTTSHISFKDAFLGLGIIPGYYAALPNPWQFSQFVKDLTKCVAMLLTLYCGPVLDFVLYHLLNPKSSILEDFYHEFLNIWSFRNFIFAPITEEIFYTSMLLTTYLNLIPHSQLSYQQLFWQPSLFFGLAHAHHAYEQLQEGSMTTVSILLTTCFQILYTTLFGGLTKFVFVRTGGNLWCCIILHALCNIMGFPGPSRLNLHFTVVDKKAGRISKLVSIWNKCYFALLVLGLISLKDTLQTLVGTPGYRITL
Env fusion inh: inhibitors of HIV Env-mediated cell fusion. HeLa-JRFL Env/CEM21 cell fusion, luciferase. inhibition, % at 12.3 µM. 360,000 compounds, 1.1% hits. AID 651610;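 active means mean replicate inhibition score of at least 50 and every replicate individually at or above 50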;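 further: 0% = plate neutral controls and 100% = maraviroc near 300 nM; one replicate is shown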
eIF4H inh: inhibitors of RNA binding by human eIF4H | eIF4H fluorescence polarization binding assay | AID 2012 | inhibition, % at 35 µM | 290,000 compounds, 0.94% hits;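 active means 50% or more with normal probe brightness, or confirmed in later tests; about a fifth of its hits are not listed in these tables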;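 further: calls also rest on retests at 20 µM and on dose response follow-up; 0% = protein and probe with vehicle and 100% = probe without protein; strong numbers were not always called active; many hits fall short of the cut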
MT1-MMP act inh: MT1-MMP (human) activation inhibition; P50281; AID 651647; GFP/RFP ratio change, % at 20 µM; HT1080 RFP-PRO-GFP cells, GFP/RFP ratio fluorescence, overnight; percent of plate control window, DMSO zero; 360,000 compounds, 0.061% hits;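 active means GFP/RFP ratio change of at least 30% with cell ATP level not reduced by more than half and red fluorescence within 50% of control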; further: strong numbers were not always called active
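Material: RFP-PRO-GFP reporter HT1080 cells. Dosing: single-point 20 µM compound, 1% DMSO. Controls: DMSO and RFP-L50D-GFP cell wells. Timing: cells overnight before dosing, compound overnight, 37 °C, 5% CO2. Measure: GFP/RFP fluorescence ratio.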
MT1-MMP act inh RFP: recorded beside MT1-MMP act inh, whose call it bears; RFP signal change, %; measured here: RFP expression control read;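 0 = vehicle wells; hits needed this value within 50% of zero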
Active calls of the source: *; i = inactive; nt = not tested or not shown. This is a subset; rates above refer to the full screens.

SMILES	PABP polyA inh	UUG fidelity	CSC inhib	Rce1 inh	Env fusion inh	eIF4H inh	MT1-MMP act inh	MT1-MMP act inh RFP
Cc1ccc(C(=O)N2CCCC(C(=O)c3ccc(Cl)cc3C)C2)cn1 (centres undefined)	-7	-9	8	i	4	5	1	-1
CCCC[C@H]1COCCS(=O)(=O)N1Cc1ccc(F)cc1	1	-6	8	i	6	7	3	-2
COc1ccc(S(=O)(=O)Oc2ccc(C(=S)N3CCOCC3)cc2OC)cc1	0	-10	-6	i	1	1	4	-13
CCC1=NN(C(=O)c2ccc(Cl)cc2)C(O)(c2ccccc2)C1 (centres undefined)	2	-15	63	i	7	0	2	-2
Cc1cccc2sc(N(CCN3CCOCC3)C(=O)CCS(=O)(=O)c3ccccc3)nc12	nt	-10	2	i	12	nt	1	0
COc1ccc(NC(=S)NC(C)C(c2ccccc2)N2CCOCC2)cc1 (centres undefined)	-6	nt	-14	i	10	-9	-6	-6
COc1cc(C(=O)N/N=C/C2CC=CCC2)cc(OC)c1OC (centres undefined)	-1	-13	-9	i	-62	-12	0	-1
CC(=O)OCC(OC(C)=O)C(OC(C)=O)C(OC(C)=O)C(=O)Nc1ccc(C)cc1 (centres undefined)	2	-4	-23	i	-20	-10	0	4
CCOCCCNC(=O)C1(O)c2cc(Br)ccc2NC(=O)N1c1ccc(OCC)cc1 (centres undefined)	-6	-9	-11	i	-17	-5	5	5
CCN1CCN(CCc2nc3cc(NC(=O)COc4ccc(Cl)cc4)ccc3n2C)CC1	-3	-13	9	i	-61	-8	1	-5
CN(C)c1ccc(/C=N/N(CCC(=O)NC(C)(C)C)C2=NS(=O)(=O)c3ccccc32)cc1	8	nt	-8	i	-2	7	-65	-2
O=C(CCCl)Nc1cc(SCCO)cc([N+](=O)[O-])c1	-1	2	-8	i	-10	7	0	2
Cc1cc(NC(=O)c2ccc(NC(=O)c3cccs3)cc2)no1	2	-7	-1	i	29	-6	10	0
COc1ccc(C(=O)CCC(C)(C)[N+](=O)[O-])cc1OC	-2	nt	-21	i	-9	-2	3	1
C=Cc1cccc(NC(=O)c2ccc(NC(=O)c3ccco3)cc2)c1	-14	2	4	i	17	-6	1	-2
O=C(NC(Cc1ccccc1)C(=O)O)/C(=C\c1ccc(F)cc1)NC(=O)c1ccccc1 (centres undefined)	1	nt	-16	i	nt	1	2	7
COc1ccc(C(=O)N(CCc2ccccc2)Cc2ccccc2)cc1S(=O)(=O)N1CCOCC1	nt	-9	-1	i	-14	nt	-2	-1
COc1ccccc1C(=O)NCC(=O)OCC(=O)c1ccc(Cl)s1	nt	2	3	i	0	nt	-4	4
Cc1ccccc1S(=O)(=O)N(C)C[C@@H]1OCc2ccccc2-c2c(n(C)c3ccccc23)C(=O)N([C@H](C)CO)C[C@@H]1C	nt	28	nt	nt	74*	nt	-2	-8
NC(=O)C1(Nc2ccc(C(=O)O)cc2)CCCC1	nt	-19	nt	nt	-1	nt	-2	3
O=C(O/N=C1\CCS(=O)(=O)c2sccc21)C1CC1	0	nt	-15	i	2	-8	-8	1
O=C(Nc1cccc(C(F)(F)F)c1)/C(=C/c1ccco1)NC(=O)c1cccs1	-8	-27	-4	i	nt	1	-5	1
COc1cc(NC(=O)Nc2ccccc2OC)c(OC)cc1NC(=O)CN1CCCCC1	8	nt	0	i	nt	-1	2	1
COc1ccc(N2C(=O)C3C(C2=O)C(C(=O)c2ccc(Cl)cc2)N2CCCC32)cc1 (centres undefined)	-4	nt	2	i	-64	5	-36	4
O=C(Nc1ccc2[nH]c(=S)sc2c1)c1ccccc1	-7	nt	6	i	-35	12	4	-1

Sorted by the number under MT1-MMP act inh (high to low): 3 of the compounds above.
canonical_smiles | MT1-MMP act inh
CCOCCCNC(=O)C1(O)c2cc(Br)ccc2NC(=O)N1c1ccc(OCC)cc1 (centres undefined) | 5
O=C(CCCl)Nc1cc(SCCO)cc([N+](=O)[O-])c1 | 0
NC(=O)C1(Nc2ccc(C(=O)O)cc2)CCCC1 | -2

Compounds listed so far containing four or more nitrogen atoms:
SMILES	PABP polyA inh	UUG fidelity	CSC inhib	Rce1 inh	Env fusion inh	eIF4H inh	MT1-MMP act inh	MT1-MMP act inh RFP
CCN1CCN(CCc2nc3cc(NC(=O)COc4ccc(Cl)cc4)ccc3n2C)CC1	-3	-13	9	i	-61	-8	1	-5
CN(C)c1ccc(/C=N/N(CCC(=O)NC(C)(C)C)C2=NS(=O)(=O)c3ccccc32)cc1	8	nt	-8	i	-2	7	-65	-2
COc1cc(NC(=O)Nc2ccccc2OC)c(OC)cc1NC(=O)CN1CCCCC1	8	nt	0	i	nt	-1	2	1

The main list resumes; the six compounds before the break are reprinted first.
SMILES	PABP polyA inh	UUG fidelity	CSC inhib	Rce1 inh	Env fusion inh	eIF4H inh	MT1-MMP act inh	MT1-MMP act inh RFP
NC(=O)C1(Nc2ccc(C(=O)O)cc2)CCCC1	nt	-19	nt	nt	-1	nt	-2	3
O=C(O/N=C1\CCS(=O)(=O)c2sccc21)C1CC1	0	nt	-15	i	2	-8	-8	1
O=C(Nc1cccc(C(F)(F)F)c1)/C(=C/c1ccco1)NC(=O)c1cccs1	-8	-27	-4	i	nt	1	-5	1
COc1cc(NC(=O)Nc2ccccc2OC)c(OC)cc1NC(=O)CN1CCCCC1	8	nt	0	i	nt	-1	2	1
COc1ccc(N2C(=O)C3C(C2=O)C(C(=O)c2ccc(Cl)cc2)N2CCCC32)cc1 (centres undefined)	-4	nt	2	i	-64	5	-36	4
O=C(Nc1ccc2[nH]c(=S)sc2c1)c1ccccc1	-7	nt	6	i	-35	12	4	-1
O=C(c1ccco1)N1CCN(C(=S)Nc2cccc([N+](=O)[O-])c2)CC1	2	nt	-2	i	7	-6	2	-6
COC(=O)c1nc2n(n1)C(c1cccc(Cl)c1)C1=C(CCCC1=O)N2 (centres undefined)	6	-21	-8	i	-13	-5	2	5
CCc1nc(Sc2nc(C)cc(C)n2)c2oc3ccccc3c2n1	-6	-5	-1	i	nt	-2	-3	-2
Cc1nc(N2CCCC2)c2ccsc2n1	8	-13	-25	i	nt	-7	-1	2
Cc1cc2c(cc1C)C(=O)NC(C)(C)C2	-11	-19	-8	i	9	-12	-17	-11
Cc1cccc(C2CC3(CC(C)(C)NC(=S)N3)Oc3cc(O)ccc32)c1 (centres undefined)	5	-27	6	i	-24	3	3	0
O=C(NCCOc1nc(N2CCCCC2)nc(N2CCCCC2)n1)Nc1ccccc1	-8	-7	26	i	12	-11	-5	-4
CCc1ccccc1NC(=O)CN(C)C(=O)Cn1ncc(Cl)c(Cl)c1=O	-10	8	56	i	-143	4	-5	-3
Cn1cnnc1Sc1ccc(C(=O)OCC(=O)NC2CC2)cc1[N+](=O)[O-]	6	nt	nt	i	0	-2	1	-3
CCCC(=O)Nc1c(C)n[nH]c1C	1	-12	-1	i	-52	-13	0	1
COCCNC(=O)c1cccc(OC2CCN(Cc3ccc(C(C)C)cc3)CC2)c1	-4	-3	5	i	24	2	4	-9
O=C(CN1CCCCCC1)Nc1ccccc1F	0	-10	-8	i	-7	-2	-1	-3
CC(C)c1ccc(NC(=O)COc2ccccc2)cc1	-7	3	-14	i	-24	0	0	-2
N#Cc1c(NC(=O)CSc2ncn(-c3ccccc3)n2)sc2c1CCCC2	-1	-11	6	i	nt	-3	1	2
Cc1c(NC(=O)c2cc(-n3cnnc3)ccc2Cl)cccc1-c1nc2ccccc2o1	4	nt	-6	i	nt	-8	-4	-6
Cc1ccc(-c2nn(-c3ccccc3)cc2/C=N/NS(=O)(=O)c2ccccc2)cc1	5	nt	nt	i	-44	9	2	-4
Cc1nnc(SCC(=O)NCc2ccc3c(c2)OCO3)[nH]c1=O	4	nt	-8	i	nt	5	4	5
c1ccc(OCCN2CCNCC2)cc1	nt	-18	nt	nt	10	nt	5	5
CN1CCN(C(=O)/C(=C\c2cccc([N+](=O)[O-])c2)NC(=O)c2cccs2)CC1	2	nt	-1	i	10	-1	2	3
CCCCCNC(=O)c1ccc(NC(=O)CC2SC(N3CCCC3)=NC2=O)cc1 (centres undefined)	nt	0	nt	nt	21	nt	3	5
COc1ccccc1NC(=O)CNC(=O)c1ccc(Br)o1	8	-20	12	i	-14	-1	-1	1
CCOc1ccc(C(=O)NCC(=O)OCc2csc(-c3ccccc3)n2)cc1	-3	-21	17	i	2	-2	1	-1
CCC[C@@H](CN1CCC[C@H]1CN1C(N)=NC[C@H]1CC(C)C)N1C[C@@H](Cc2ccccc2)N(CCc2ccc(Cl)c(Cl)c2)C1=N	nt	4	-5	nt	-4	nt	1	9

Only PABP polyA inh, MT1-MMP act inh and eIF4H inh (five entries from above):
SMILES | PABP polyA inh | MT1-MMP act inh | eIF4H inh
CCc1ccccc1NC(=O)CN(C)C(=O)Cn1ncc(Cl)c(Cl)c1=O | -10 | -5 | 4
Cn1cnnc1Sc1ccc(C(=O)OCC(=O)NC2CC2)cc1[N+](=O)[O-] | 6 | 1 | -2
CCCC(=O)Nc1c(C)n[nH]c1C | 1 | 0 | -13
COCCNC(=O)c1cccc(OC2CCN(Cc3ccc(C(C)C)cc3)CC2)c1 | -4 | 4 | 2
O=C(CN1CCCCCC1)Nc1ccccc1F | 0 | -1 | -2
